MLL AF4-AF9 inh: blocks AF4 peptide binding to human AF9; P42568; AlphaScreen, biotin-AF4 peptide binding to FLAG-AF9; inhibition, % at 10 µM; 350,000 tested, 0.47% active; AID 651704;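 active = every replicate reaching a set inhibition limit, whatever the replicate mean, cut at about 25% in these data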;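 note: 0% = plate neutral control median and 100% = total signal loss; the record names both 10 and 1 µM as test concentration; the first replicate is given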
Target sequence (P42568 whole entry, looked up): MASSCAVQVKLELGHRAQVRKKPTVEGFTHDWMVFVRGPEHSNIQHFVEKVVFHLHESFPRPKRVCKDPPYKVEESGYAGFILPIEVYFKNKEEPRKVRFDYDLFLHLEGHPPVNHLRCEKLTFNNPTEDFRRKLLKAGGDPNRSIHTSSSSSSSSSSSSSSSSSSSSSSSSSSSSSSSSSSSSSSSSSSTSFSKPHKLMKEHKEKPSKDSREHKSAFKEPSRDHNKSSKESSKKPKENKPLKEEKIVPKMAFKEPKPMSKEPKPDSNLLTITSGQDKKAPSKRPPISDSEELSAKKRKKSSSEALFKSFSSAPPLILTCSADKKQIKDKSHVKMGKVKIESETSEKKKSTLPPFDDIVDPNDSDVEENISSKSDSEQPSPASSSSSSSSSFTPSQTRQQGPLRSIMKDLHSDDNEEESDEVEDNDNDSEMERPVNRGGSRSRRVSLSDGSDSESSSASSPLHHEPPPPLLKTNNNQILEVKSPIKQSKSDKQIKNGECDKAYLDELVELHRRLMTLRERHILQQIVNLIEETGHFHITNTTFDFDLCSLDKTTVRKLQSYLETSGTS
Vif TR-FRET: inhibitors of Vif binding to APOBEC3G peptide, primary screen, biochemical, TR-FRET, GST-Vif 1-94, biotin-A3G peptide, dose response retest (AID 1117319). 260,000 tested, 0.57% active. one-dose inhibition, %; IC50 in µM for titrated hits. TR-FRET GST-Vif / biotin-A3G peptide binding; higher % means a stronger effect; test concentration not given here; strong numbers were not always called active;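 active = above the screen mean plus three standard deviations and confirmed in dose response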;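 note: Vif residues 1-94 fused to GST binding biotinylated APOBEC3G peptide 110-148; 0% = full assay without inhibitor and 100% = GST in place of GST-Vif; retest series ran down from 100 µM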
An asterisk follows results filed as active; & = joins results of further samples. A portion of the library, so the mix of outcomes need not match the whole.

SMILES	MLL AF4-AF9 inh	Vif TR-FRET
CC1CN(C(=O)/C(C#N)=C2\N=C(NC(=O)c3ccccc3Cl)c3ccccc32)CC(C)O1 (centres undefined)	-0.3	-8%
Cc1nnc(Cc2ccccc2)c2n[nH]c(C)c12	-1.5	-1%
CC1(C)CC(=O)C=C(c2ccccc2-c2ccc(S(C)(=O)=O)cc2)C1=O	8.5	-7%
NS(=O)(=O)c1ccc(NCc2cnc3ccccc3n2)cc1	2.7	8%
C[C@]12c3[nH]c4ccc(Cl)cc4c3CCN1C(=O)[C@@H](CC(=O)NCCCn1ccnc1)C[C@@H]2C(=O)N1CCCCC1	-2.3	3%
COc1ccccc1NS(=O)(=O)c1cccc(C(=O)N/N=C(/C)c2ccc(-n3ccnc3)cc2)c1	-1.4	-4%
CC(C)c1ccc(NC(=O)C2CCCCN2S(=O)(=O)c2ccccc2)cc1 (centres undefined)	-1.5	-14%
CCC1(c2ccccc2)NC(=O)N(CC(=O)Nc2cccc(S(=O)(=O)N3CCCCC3)c2)C1=O (centres undefined)	1.8	9%
O=S(=O)(Nc1ccc(-n2cnnn2)cc1)c1cccc(F)c1	-0.1	-2%
C[C@@H]1CN([C@H](C)CO)C(=O)CCCn2cc(nn2)CO[C@H]1CN(C)C(=O)Nc1cccc2ccccc12	-0.1&-2.1&-0.3	-4%
COc1ccc(OC)c(C(=O)COC(=O)COc2ccccc2F)c1	-1.8	-1%
C=CCN1C(c2cccc(C(F)(F)F)c2)=CS/C1=C(\C#N)c1nnc(N2CCOCC2)n1-c1ccccc1	1.9	1%
Nc1ncnc(N)c1NC(=O)c1ccc(OCc2ccccc2)cc1	0.5	3%
COc1ccc(CNC(=O)COC(=O)c2cc(C)oc2C)cc1	2.2	3%
O=C(CCNS(=O)(=O)c1ccccc1C(F)(F)F)NC1CCCCCC1	-0.1	-6%
O=C1[C@H]2[C@@H](c3ccc(C(F)(F)F)cc3)N[C@]3(CCCN(Cc4ccco4)C3=O)[C@H]2C(=O)N1Cc1ccccc1	4.6	3%
O=C(Cn1nnc(-c2ccc(Cl)cc2)n1)NC(=O)NC1CCCC1	-0.2	2%
C[C@H](O)[C@@H]1C(=O)N2CCc3c([nH]c4ccccc34)[C@@H]2C[C@@H]1N(C)C(=O)Nc1ccc(F)cc1	1.2	8%
COc1ccc(Cl)cc1NC(=O)CSc1nnc(C2CC2)n1N	1.1	8%
COC(=O)c1cccc2c(C(=O)O)cc(-c3ccccc3)nc12	-3.1	-8%

By substructure: the compounds so far with a carbonyl joined to an NH by a bond outside any ring
SMILES	MLL AF4-AF9 inh	Vif TR-FRET
CC1CN(C(=O)/C(C#N)=C2\N=C(NC(=O)c3ccccc3Cl)c3ccccc32)CC(C)O1 (centres undefined)	-0.3	-8%
C[C@]12c3[nH]c4ccc(Cl)cc4c3CCN1C(=O)[C@@H](CC(=O)NCCCn1ccnc1)C[C@@H]2C(=O)N1CCCCC1	-2.3	3%
COc1ccccc1NS(=O)(=O)c1cccc(C(=O)N/N=C(/C)c2ccc(-n3ccnc3)cc2)c1	-1.4	-4%
CC(C)c1ccc(NC(=O)C2CCCCN2S(=O)(=O)c2ccccc2)cc1 (centres undefined)	-1.5	-14%
CCC1(c2ccccc2)NC(=O)N(CC(=O)Nc2cccc(S(=O)(=O)N3CCCCC3)c2)C1=O (centres undefined)	1.8	9%
C[C@@H]1CN([C@H](C)CO)C(=O)CCCn2cc(nn2)CO[C@H]1CN(C)C(=O)Nc1cccc2ccccc12	-0.1&-2.1&-0.3	-4%
Nc1ncnc(N)c1NC(=O)c1ccc(OCc2ccccc2)cc1	0.5	3%
COc1ccc(CNC(=O)COC(=O)c2cc(C)oc2C)cc1	2.2	3%
O=C(CCNS(=O)(=O)c1ccccc1C(F)(F)F)NC1CCCCCC1	-0.1	-6%
O=C(Cn1nnc(-c2ccc(Cl)cc2)n1)NC(=O)NC1CCCC1	-0.2	2%
C[C@H](O)[C@@H]1C(=O)N2CCc3c([nH]c4ccccc34)[C@@H]2C[C@@H]1N(C)C(=O)Nc1ccc(F)cc1	1.2	8%
COc1ccc(Cl)cc1NC(=O)CSc1nnc(C2CC2)n1N	1.1	8%

Next structures
SMILES	MLL AF4-AF9 inh	Vif TR-FRET
CCOC(=O)c1ccc(S(=O)(=O)N2CCN(C3CC(=O)N(c4ccccc4C(F)(F)F)C3=O)CC2)cc1 (centres undefined)	-1.6	-3%
CC(C)(C)Cc1c(-c2ccc(F)cc2)nc2ccc(Br)cn12	-4.6	-8%
Cc1nc2ccc(NC(=O)c3ccccc3)cc2c(=O)n1Cc1ccc(F)cc1	1.2	-7%
CC(=NNC(=O)c1ccncc1)c1ccc2ccccc2c1O	0.7	-9%
CC(C)C[C@@H](CN)NC(=O)c1nc[nH]c1C(=O)N[C@@H](CC(C)C)C(=O)CNC[C@H](C)NC(=O)c1nc[nH]c1C(=O)N[C@@H](CC(=O)O)C(=O)O	-1.2	1%
Cc1cn([C@H]2C[C@H](O)[C@@H](CNC(=O)[C@@H]3CCCN3Cc3ccccc3)O2)c(=O)[nH]c1=O	-5.4	6%
CC1(C2CC2)NC(=O)N(CC(=O)N2CCN(c3ccccc3F)CC2)C1=O (centres undefined)	-1.6	10%
Cc1cc2c(cc1C)NC(=O)CC(c1ccccc1)=N2	1.7	-4%
Cc1cccc(NC(=O)CSc2nncn2N)c1C	-3.1	-2%
COc1ccc(C(=O)N/C(=C\c2ccc(Cl)cc2)C(=O)NCCN2CCOCC2)cc1	-1.0	-2%
COc1ccc(-c2noc(CN(C)C(=O)CCCN3C(=O)[C@H]4CC=CC[C@H]4C3=O)n2)cc1	-0.6	3%
COc1ccccc1CNC(=O)CN1C(=O)NC(c2ccccc2)(c2ccc(C)c(C)c2)C1=O (centres undefined)	-0.2	-3%
Cn1c(=O)c2[nH]c(COc3ccccc3)nc2n(C)c1=O	-3.9	2%
C[C@H]1C(=O)N(c2ccccc2)[C@@H]1c1ccccc1	-2.0	-1%
COc1ccccc1CNC(=O)COC(=O)c1cnc(C)cn1	1.0	-9%
N#Cc1ccccc1OCC(=O)Nc1ccc2c(c1)OCO2	-7.8	2%
O=C1NC[C@H](Cc2ccccc2)N(CC2CCN(CC3CCCC3)CC2)C1=O	-3.1	-3%
c1cc(CNCCN2CCNCC2)ccn1	0.0	0%
CN(CCc1ccccc1)C(=O)c1cccc(NC(=O)Cc2cccc(NC(=O)C3CCN(C(=O)C4CCCC4)CC3)c2)c1	1.9	1%
O=C(NNC(=O)c1ccc2ccccc2c1)c1ccc(Cl)cc1	-12	-1%
Cc1cc(N2CCCC2)ccc1NC(=O)COc1ccccc1	-2.3	-9%
O=C(O)C(c1ccccc1)C1CCCCC1O (centres undefined)	-0.4	-8%
C[C@@H]1CN([C@@H](C)CO)C(=O)CCCn2cc(nn2)CO[C@H]1CN(C)C(=O)Oc1ccccc1	0.9&0.5	-6%
Cc1cccc(N2CCN(C(=O)CNC(=O)C3CCCCC3)CC2)c1C	1.0	0%
CC1CCCC12NC(=O)NC2=O (centres undefined)	-1.2	-10%
O=C(N/N=C/c1ccc([N+](=O)[O-])o1)c1cc2c(ccc3ccccc32)o1	-1.1	13%
CCN(CC)C(=O)[C@H]1CC(CC(=O)NC(C)(C)C)C(=O)N2CCc3c([nH]c4ccc(OC)cc34)[C@]12C (some centres undefined)	-11	7%
CN(C(=O)c1cccc(NC(=O)Cc2ccc(NC(=O)C3CCN(C(=O)C4CCC4)CC3)cc2)c1)C1CC1	2.3	-4%
O=C(OCC(O)C(O)C(O)C(SCc1ccccc1)SCc1ccccc1)c1ccccc1 (centres undefined)	0.4	-13%
CCN(CC)C(=O)C1=C(C)N(Cc2ccc(C(C)(C)C)cc2)C(=O)C(CC(=O)NC2CCCC2)C1 (centres undefined)	-5.9	3%
CCC(=O)Nc1ccc(C(=O)NNC(=O)CCCCC(=O)NNC(=O)c2ccc(NC(=O)CC)cc2)cc1	-20	2%
Cc1[nH]c(N)nc(=S)c1CCCNc1ccccc1	0.4	-7%
O=C(NCc1cccs1)[C@@H]1CCCN1S(=O)(=O)c1ccccc1F	-2.7	-4%
Oc1ccc2ccccc2c1CN1CCCCC1	-11	-6%
CCOc1ccccc1C=NNc1ccc([N+](=O)[O-])cn1	-1.9	2%
CN(CC(=O)Nc1ccccc1Br)C(=O)c1n[nH]c2ccccc12	-2.1	1%
C(=NOCc1ccccc1)c1ccccn1	-2.1	2%
O=C(NCCc1cn[nH]c1)c1ccc2oc(CCc3ccccc3)nc2c1	-4.4	7%
O=C(CSc1nnc2ccc(-c3ccccn3)nn12)Nc1cccc(F)c1	-2.1	-21%
CCCCCCCCCCCCCC(=O)NO	-0.6	8%
S=C(CSc1ccccc1)Nc1cccc2ccccc12	-1.1	5%
Cc1ccc(S(=O)(=O)N2CCCCC2)cc1NC(=O)c1ccco1	0.5	6%
O=C1c2ccccc2C(=O)N1CC1CO1 (centres undefined)	-2.4	-5%
NC(=S)N1N=C(c2ccccc2)CC1=O	0.2	-7%
O=c1n(CC2CO2)c(=O)n(CC2CO2)c(=O)n1CC1CO1 (centres undefined)	1.0	-2%
COc1ccccc1NS(=O)(=O)c1cccc(C(=O)NCC2(N3CCCCC3)CCCCC2)c1	-1.8	2%
C=CCN(c1ccccc1)S(=O)(=O)c1cccc(C(=O)NCC(c2ccc(OC)cc2)N2CCCCC2)c1 (centres undefined)	5.3	3%
O=C(/C=C/c1ccc([N+](=O)[O-])cc1)Nc1ncc([N+](=O)[O-])s1	2.2	-10%
Cn1c2ccccc2c(=O)c2ccc(Cl)cc21	-1.2	19%
CC(=O)N1CCN(C(=O)c2cccc(S(=O)(=O)Nc3c(C)n(C)n(-c4ccccc4)c3=O)c2)CC1	-4.6	-2%
c1ccc(NN(Cc2ccccn2)c2ccccc2)cc1	2.3	-9%
COc1ccc(C(=O)OCC(=O)N2CCC(C)CC2)cc1S(=O)(=O)N1CCOCC1	-8.4	-2%
C[C@@H]1CCCCO[C@H](CN(C)C(=O)NC2CCCCC2)[C@@H](C)CN([C@H](C)CO)C(=O)c2cc(NC(=O)c3ccccc3)ccc2O1	-1.6	-4%
O=c1c2ccccc2c2ccccc2c(=O)n1Cc1ccc2c(c1)OCO2	0.5	3%
COc1ccc(CNCCCNCc2ccc(OC)c(OC)c2)cc1OC	5.2	-6%
CC(C)OCCCNc1nc2c(cnn2C)c(=O)[nH]1	-5.1	-2%
CC(C)(C)OC(=O)N1CCC(C(=O)Nc2cccc(C(=O)NCc3ccccc3)c2)CC1	-2.3	-2%
CCCCN1CCC(=O)NC1=O	-0.6	2%
O=C1CCC(C(=O)OCC(=O)Nc2ccc(SC(F)F)cc2)=NN1	-0.8	-4%
O=C(O)C1CC2CCC1CC2 (centres undefined)	-1.2	-4%

Continued:
SMILES	MLL AF4-AF9 inh	Vif TR-FRET
O=C(CCl)Nc1c[nH]c(=O)[nH]c1=O	-1.0	3%
O[C@@H]1C[C@H](c2ccccc2)N(CC2CCCCC2)C[C@H]1n1cc(C2CC2)nn1	4.2	-1%
Cc1ccc(S(=O)(=O)N2C[C@@H]3[C@H]4CC[C@H](C4)[C@@H]3[C@@H](C)[C@H]2C#N)cc1	0.7	0%
Cc1ccccc1NC(=O)COC(=O)c1c(C)nn(-c2ccccc2)c1C	-1.3	1%
O=C(NNC(=O)c1cccc2ccccc12)c1ccc(Cl)cc1	10	-1%
CC1CCCCC1NC(=O)CSc1nnnn1C (centres undefined)	-3.2	-3%
CC(=O)c1c(C)[nH]c(C(=O)NNC(=O)COc2cc(C)cc(C)c2)c1C	1.6	1%
CC(OC(=O)Cc1ccc(F)cc1)C(=O)N1CCc2ccccc21 (centres undefined)	3.1	-6%
CCCN(CC(=O)NC(=O)NCc1ccccc1)CC(=O)Nc1ccc(F)c(F)c1F	-3.2	-2%
CCOc1ccc(NC(=O)CN(C)C(=O)CSc2ccccc2)cc1OCC	-9.7	-1%
C[C@@H]1CN([C@@H](C)CO)C(=O)c2cc(Br)cnc2O[C@@H]1CN(C)S(=O)(=O)c1ccc(F)cc1	-2.4&-1.2&-0.1	-8%
COc1cc(C(=O)NCCc2ccc3c(c2)OCO3)cc(OC)c1OC	-16	4%
COC(=O)[C@H](CC(C)C)NC(=O)Cn1cnc2c(NCc3ccccc3)ncnc21	-4.9	-3%
O=C1NCC(Nc2ccc(Cl)cc2)C(=O)N1 (centres undefined)	-6.1	-18%
O=C(CN1CCN(S(=O)(=O)c2ccc(F)cc2)CC1)Nc1ccccc1C(=O)NC1CC1	-8.6	-5%
O=C(CC1SC(N2CCCC2)=NC1=O)Nc1ccc(C(=O)NCc2ccc(F)cc2)cc1 (centres undefined)	-16	5%
COc1ccc(CN(C)C(=O)C2CC(=O)N(c3ccc4c(c3)OCCO4)C2)cc1 (centres undefined)	0.7	-5%
CC1=C(C)N(C)[C@H](c2ccccc2Br)[C@H](O)C1=O	1.0	-1%
CCCCN1C=C(C(=O)c2ccccc2)C(=O)CC1	3.4	5%
COCCN(Cc1ccccc1)C(=O)c1cccc(S(=O)(=O)N2CCN(Cc3ccccc3)CC2)c1	11	-1%
CCCCc1ccc(NC(=O)COC(=O)c2ccc3ncsc3c2)cc1	-4.8	-10%
Oc1ccc2c(c1)c1ccccc1c1ncccc21	-4.8	-9%
Cc1cn([C@H]2C[C@H](O)[C@@H](CNC(=O)[C@H](N)C3CC3)O2)c(=O)[nH]c1=O	-0.2	24%
CC[C@]12c3[nH]c4cc(CCC(=O)N(C)C)ccc4c3CCN1C(=O)[C@@H](CC(=O)NCCCn1ccnc1)C[C@@H]2C(=O)N1CCN(C(=O)c2ccco2)CC1	-2.1	0%
Cc1ccc(CN(C)C(=O)CCNC(=O)c2ccc(Cl)cc2)o1	-3.2	5%
Cc1cccc(Nc2nc(N)nc(N)c2N=O)c1	1.2	0%
Cc1ccc(C)c(NC(=O)COC(=O)c2c(-c3ccccc3)noc2C)c1	-2.2	0%
CC1C(=O)N(Cc2cn(CCC3OCCCO3)nn2)CCS(=O)(=O)N1Cc1ccc(-c2ccc(Cl)cc2)cc1 (centres undefined)	0.8	0%
